gsp agonist: qHTS for Agonist of gsp, the Etiologic Mutation Responsible for Fibrous Dysplasia/McCune-Albright Syndrome: qHTS. gsp mutant cells, cAMP HTRF, 30 min; control for the full effect not named in the record. Potency, µM (series often up to 76.9 µM), without a hit: top-dose activation (cAMP increase), hits mostly activators. hit rate 0.13% among 340,000. AID 624287, 2012; active = well fitted activation curve with a large enough effect; inconclusive = small, poorly fitted or top-dose-only effect, or another doubt; inactive = no such curve, though single readings can be large or run the other way; cell line not stated here;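 also: phosphodiesterase inhibitor Ro 20-1724 added with compounds to block cAMP breakdown; potency is read from the fitted curve at half-maximal effect; nearly all actives have a fitted effect of over 60% in size; about a fifth of the inactives were tested at one dose only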
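Cells in DMEM/10% FBS with G418 were pretreated with compounds in DMSO plus […] (300 uM stock) for 30 min at 37C. cAMP was measured by HTRF (cAMP-d2 plus anti-cAMP antibody-K) after 30 min at room temperature.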
ClpP mod: qHTS Assay for Activators of ClpP. ATP-dependent Clp protease proteolytic subunit (Bacillus subtilis (strain 168)), P80244. purified B. subtilis ClpP, FRET peptide cleavage, 20 min. Potency, µM (top dose mostly 57.5 µM), for inactives: top-dose activity change, negative = active. hit rate 1.9% among 340,000. AID 651965, 2013; active = well fitted falling curve with a large enough effect; inconclusive = small, poorly fitted or top-dose-only effect; inactive = no such curve, though single readings can be large or run the other way; also: potency is read from the fitted curve at half-maximal effect; the source files actives as falling curves though it sought activators and does not explain the sign; nearly all actives have a fitted effect of over 65% in size; many hits overshoot -100%
Target sequence (P80244 whole entry, looked up): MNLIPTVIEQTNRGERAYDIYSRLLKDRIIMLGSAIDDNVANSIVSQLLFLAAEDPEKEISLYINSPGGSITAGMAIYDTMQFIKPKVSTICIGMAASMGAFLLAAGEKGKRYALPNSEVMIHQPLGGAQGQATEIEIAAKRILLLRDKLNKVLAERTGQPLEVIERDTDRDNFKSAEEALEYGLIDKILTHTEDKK
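Purified B. subtilis ClpP, 10 microg/mL final in Tris/HCl pH8 with KCl, BSA, glycerol and Tween-20, cleaved an Abz/nitrotyrosine-quenched decapeptide. Fluorescence (ex 320, em 430) was read at 0 and 20 min at room temperature. Delta was normalized to 5.8 microM ADEP and DMSO/no-enzyme controls.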
Menin-MLL FL inh: qHTS Assay for Inhibitors Targeting the Menin-MLL Interaction in MLL Related Leukemias: Competition With Fluorescein Labeled MLL-derived Peptide; Fluorescence polarization, fluorescein-MLL peptide displacement from menin; FP activity change, % at 61.4 µM; 290,000 tested, under 10 active; AID 1766, 2009; inconclusive = falling polarisation curve, or a change in total fluorescence; inactive = total fluorescence flat and polarisation flat or rising; no compound was filed as active; the % refers to the polarisation; negative = inhibition;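 also: % of control where 0% means no effect; inhibitors lower the polarisation; unlabelled MLL peptide was the positive control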
gsp antagonist: qHTS for Antagonists of gsp, the Etiologic Mutation Responsible for Fibrous Dysplasia/McCune-Albright Syndrome: qHTS; Potency, µM (highest dose often 76.9 µM), for the others: top-dose activity change, negative = inhibition, hits mostly inhibitors; gsp-mutant cells, cAMP HTRF, 30 min; control for the full effect not named in the record; AID 624288, 2012; hit rate 0.4% among 340,000; active = falling curve of any shape with a large fitted effect; inconclusive = falling curve, mostly with a smaller effect; inactive = flat or rising curve; cell line not stated here;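 also: intracellular cAMP measured with PDE inhibitor Ro 20-1724 present during compound exposure; potency is read from the fitted curve at half-maximal effect; % is scaled to controls: 0 for no effect and ±100 for the full control effect; nearly all actives have a fitted effect of over 65% in size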
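Cells, 2000/well, grown 16–24 h in DMEM 10% FBS with 0.5 mg/ml G418, then compounds plus […] (300 uM addition stock), 30 min at 37C. cAMP read by HTRF (cAMP-d2 and anti-cAMP antibody-K in lysis buffer) after 30 min RT.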
D2 PAM: Beta-Arrestin HTS for Positive Allosteric Modulators of the Human D2 Dopamine Receptor: Potentiators; D(2) dopamine receptor (Homo sapiens), P14416; potentiation, % (test concentration not listed); hit rate 0.23% among 360,000; DiscoveRx D2 beta-arrestin cells, luminescence, 90 min; 100% = 57 uM dopamine signal; active = potentiation of 50% or more; inconclusive = 30% to 50%; inactive = 30% or less;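 also: compound concentration not given in the record; tested on top of an EC20 dose of dopamine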
Target sequence (P14416 whole entry, looked up): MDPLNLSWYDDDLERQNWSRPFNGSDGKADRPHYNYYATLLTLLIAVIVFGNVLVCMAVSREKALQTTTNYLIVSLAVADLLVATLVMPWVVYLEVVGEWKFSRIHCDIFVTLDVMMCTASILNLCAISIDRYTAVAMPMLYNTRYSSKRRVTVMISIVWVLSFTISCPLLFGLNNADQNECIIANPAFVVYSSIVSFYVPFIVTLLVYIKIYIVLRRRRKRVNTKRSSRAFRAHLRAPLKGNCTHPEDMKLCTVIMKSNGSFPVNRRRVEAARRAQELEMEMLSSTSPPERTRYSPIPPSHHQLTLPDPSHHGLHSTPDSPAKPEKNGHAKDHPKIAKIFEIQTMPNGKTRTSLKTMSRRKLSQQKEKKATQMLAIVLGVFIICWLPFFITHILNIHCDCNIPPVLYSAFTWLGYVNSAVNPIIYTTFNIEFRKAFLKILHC
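PathHunter D2 cells, attached overnight at 37 deg C, received compound in DMSO plus dopamine at EC20 (50 nM final) for 90 min at 37 deg C. Beta-arrestin recruitment was read as luminescence after 1 h with detection reagent at ambient temperature.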
Sfp PPTase inh: qHTS Assay for Inhibitors of Bacillus subtilis Sfp phosphopantetheinyl transferase (PPTase); Biochemical Sfp PPTase activity, qHTS; Potency, µM, for inactives: max response, negative = inhibition, usual class: inhibitors; hit rate 3.5% among 310,000; AID 1490, 2009; active = well fitted inhibition curve with a large enough effect; inconclusive = small, poorly fitted or top-dose-only effect, or another doubt; inactive = no such curve, though single readings can be large or run the other way;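 also: the enzyme is Sfp with the accession as filed and its product quenches rhodamine fluorescence; potency is read from the fitted curve at half-maximal effect; 0% = enzyme reaction without inhibitor and -100% = no enzyme wells; top concentration of the series not given in the record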
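Fluorescence-quenching assay with 15 nM Sfp, 5 uM rhodamine-CoA and 12.5 uM BHQ-2-labelled ybbR peptide in pH 7.6 Hepes/MgCl2 buffer. Enzyme was pre-incubated with compound for 15 min at room temperature. Rate was taken from the 30-min fluorescence change (525/598 nm).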
TRPV1 potentiator: HTS Assay for Compounds that Act as Potentiators of the Vanilloid Receptor 1; TRPV1-expressing cells, Fluo-8 calcium influx, capsaicin EC20 potentiation; host cell line not named in the record; control for the full effect not named in the record; potentiation, % at 8.33 µM; hit rate 0.02% among 320,000; AID 540277, 2011; active means potentiation above 80%; inconclusive means 30% to 80%; inactive means below 30%; also: 0% is about no effect
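TRPV1-expressing cells were cultured overnight at 35.5C and loaded with Fluo-8 calcium dye for 40 to 90 min at room temperature. After a 10 s baseline, compound was added and calcium influx was read kinetically for 3 min (ex 480/em 520 nm).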
The depositor's hits bear a star; ? = inconclusive; . = no result given; & = joins results of further samples; [ ] = dose if it differs, or a comment.

SMILES | gsp agonist | ClpP mod | Menin-MLL FL inh | gsp antagonist | D2 PAM | Sfp PPTase inh | TRPV1 potentiator
O=C(/C=C/c1ccc(Cl)cc1)N(c1ccccn1)C1CCCCC1 | -40%[inhibitor] | -0.7% | 8.2 | -28% | -4 | -16% | -19
COc1cccc(NC(=O)CN(C)C(=O)CSc2ccc3c(c2)OCCO3)c1 | 27% | -1.8% | . | 2% | -12 | . | 6
Cc1nc2c(-c3ccc(F)cc3)c(C)nn2c(C)c1CCC(=O)NC(C)CCc1ccco1 (stereo not given) | -1% | -1.5% | 3.6 | -15% | 2 | -6% | 13
Cc1ccc(NC(=O)c2cccc(S(=O)(=O)N3CCCc4ccccc43)c2)nc1 | 16% | -6.0% | . | ? | 1 | . | 0
O=C(N/N=C/c1cccc(OC2CSC2)c1)c1ccccc1O | -31%[inhibitor] | ? | 4.6 | -9% | -28 | ? | -32
Cc1ccc(CNC(=O)c2cccc(-n3cnnn3)c2)cc1 | ? | 1.1% | -0.2 | -2% | -5 | -3% | ?
CCOCc1c(C(=O)Nc2ccc3nc(N4CCOCC4)sc3c2)oc2ccccc12 | -7%[15.4 µM] | -16% | . | -23% | 7 | . | 0
O=C(COC(=O)Cc1ccc(Br)cc1)NC1CCCC1 | -9% | . | . | 13% | 0 | . | .
O=C(Cc1ccccc1)NNC(=O)C1CCN(c2ncccn2)CC1 | ? | . | -2.8 | 4% | -5 | 7% | -7
CN(C)c1ccc(NC(=O)CSc2nnc(-c3cccs3)n2Cc2ccco2)cc1 | 20% | -2.8% | 0.0 | -15% | -6 | 1% | 6
O=C(CSc1ncnc2c1nnn2Cc1ccccc1F)NCC1CCCO1 (stereo not given) | ? | -1.0% | 5.2 | 14% | -10 | 0% | 5
CCCNS(=O)(=O)c1cc2c(cc1Br)CCN2C(=O)CC | ? | . | . | -3% | -15 | . | .
Cc1cccc(N(C)S(=O)(=O)c2ccc3c(c2)NC(=O)CC(=O)N3)c1 | -30%[inhibitor] | -0.6%&0.2% | 4.1 | 12% | -5 | 12% | -1
CCn1nc(C)c(C2C(C#N)=C(N)Oc3n[nH]c(C)c32)c1C (stereo not given) | -10%[15.4 µM] | 1.5% | 3.0 | 2% | -6 | 8% | 6
Cc1ccccc1N1CCN(S(=O)(=O)C[C@]23CCC(CC2NC(=O)[C@@H](N)CCS(C)(=O)=O)C3(C)C)CC1 (stereo not given in full) | . | 1.1% | 8.0 | -10% | -8 | . | 2
CN(C)c1ccc(C(=N)Cc2ccc3ccccc3n2)cc1 | -27% | -0.1% | . | . | -5 | . | .
Cc1cc(=O)oc2cc(OCC(=O)NC3CC(C)(C)NC(C)(C)C3)c(Cl)cc12 | 0% | ? | 1.2 | 13% | -9 | 10% | -2
Cn1ncc2c(=O)[nH]cnc21 | -10% | . | -0.7 | 12% | -4 | 20% | ?
CC(C(=O)N1CCN(c2ccccc2)CC1)N1C(=O)C2CC=CCC2C1=O (stereo not given) | -23% | -0.2% | 1.5 | 7% | -2 | 9% | 2
Cc1nn(Cc2ccccc2Cl)c2sc(C(=O)NC(C)(C)C)cc12 | -29% | 0.0% | 0.6 | -34% | 13 | 0% | -15
CCOC(=O)C(=O)N1CCC(C(=O)OC)CC1 | ? | . | 2.5 | 16% | -5 | 11% | 20
CCCCC1=CC2=CC(=O)C(C)(OC(=O)CC)C(=O)C2=CN1C(CO)CO (stereo not given) | . | -0.7% | 1.5[11.7 µM] | 6% | 18 | -10%&1% | 16
Cc1ccc(N(Cc2ccccc2)C(=O)CN2C(=O)NC3(CCCC3)C2=O)cc1 | 2% | 0.3% | -5.5 | 8% | -1 | 3% | -3
CC(C)C(=O)Nc1ccc(C(=O)NNC(=O)CCCOc2ccc(Cl)cc2Cl)cc1 | 9% | -0.8% | -1.4 | 11% | -7 | 11% | 6
COc1ccccc1NC(=O)N1CCN(c2ccc3nncn3n2)CC1 | 5% | -1.5% | -4.4 | 9% | -5 | 10% | 0
(continued)
SMILES | gsp agonist | ClpP mod | Menin-MLL FL inh | gsp antagonist | D2 PAM | Sfp PPTase inh | TRPV1 potentiator
COC(=O)[C@]1(Cc2ccccc2)N[C@H](CN(C)S(=O)(=O)c2ccc(C(C)(C)C)cc2)[C@@H]2C(=O)N(C)C(=O)[C@@H]21 | . | 1.6% | . | -12% | -2 | . | .
CC(=O)c1c(C(C)=O)c(C)n(Cc2ccc3c(c2)OCO3)c1C | -12% | -2.0% | 0.4 | -31% | 1 | 5% | -15
NC(=O)c1ccccc1NC(=O)CCCCCn1nnc2ccccc2c1=O | ? | -5.0% | -1.2 | 2% | -24 | 0% | 30
CCCOc1ccccc1C(=O)N(Cc1ccc(C)o1)C1CCS(=O)(=O)C1 (stereo not given) | 0% | 0.1% | 1.2 | -6% | 3 | -4% | 0
NC(=O)c1ccc(NC(=O)CSc2cn(CC(=O)N3CCOCC3)c3ccccc23)cc1 | 2% | -0.7% | 1.0 | 16% | -1 | 15% | -1
CCCCc1ccc(NC(=S)N2CCCC2)cc1 | 6% | -1.8% | . | -1% | -10 | 10% | -11
Cc1ccc2oc(=O)c(/C=C(\O)c3ccco3)nc2c1 | -4%[15.4 µM] | . | ? | 5% | 9 | ? | 6
CN(C)c1cccc(N(C)C)c1CNC(=O)C(C)(C)C | 5% | . | 2.9 | -6% | -1 | 17% | -8
COc1ccc2cc(CCNC(=O)C(C)(C)C)c(=O)[nH]c2c1 | -26% | 4.8% | 0.3 | 3% | -9 | 7% | 0
CCC1CCCCN1C(=O)COc1ccc(N(C)S(=O)(=O)c2ccc(C)cc2)cc1 (stereo not given) | 14% | -0.3% | 2.3 | ? | -11 | 3% | -4
COCCCNC(=S)N(Cc1ccccc1)Cc1ccc(F)cc1 | -1% | . | -2.0 | 1% | 2 | 16% | -20
CCCCOC(=O)Nc1nnc(CC)s1 | -24% | -1.2% | -0.2 | 8% | -4 | 2% | -5
CCOc1ccc(-c2nc3c(s2)CCc2onc(-c4ccc(OC)cc4)c2-3)cc1 | -5% | ? | . | 11% | -9 | . | .
COc1ccc(NC(C)=O)cc1S(=O)(=O)N1CCN(C/C=C/c2ccccc2)CC1 | -48%[inhibitor] | -2.7% | -0.7 | 1% | -10 | -2% | 4
CC(C)=C1SC(N2CCN(c3cccc(C)c3)CC2)=NC1=O | -25% | -8.4% | 0.3 | -21% | -8 | -3% | -12
COc1ccc(S(=O)(=O)NCC(c2ccco2)N2CCc3ccccc3C2)cc1 (stereo not given) | -4% | 2.6% | . | -28% | -30 | . | 9
N#Cc1ccccc1OCC(=O)OCC(=O)N1CCCC1 | -39%[inhibitor] | . | . | -5% | -3 | . | .
O=C(COC(=O)/C=C/c1ccc(S(=O)(=O)N2CCCCCC2)cc1)NCc1ccccc1Cl | ? | -5.0% | 3.0 | -1% | -5 | -4% | 10
Cc1cccc(C)c1OCc1cc(C(=O)N(Cc2nccn2C)C(C)C)no1 | ? | -2.2% | -6.2 | 3% | -7 | 13% | -2
O=C(Nc1ccccc1)Nc1ccc(Cl)c([N+](=O)[O-])c1 | ? | -0.2% | 3.5 | 8% | -6 | -17% | 2
CO/C(N)=C(\C#N)N=Cc1ccccc1Cl | 9%[15.4 µM] | . | 3.7 | -1% | -8 | 2% | 12
CN(c1ccccc1)S(=O)(=O)c1cc(C(=O)OCC(N)=O)ccc1Cl | -37%[inhibitor] | -0.9% | 5.2 | -11% | 0 | 14% | 4
OC1(c2cccs2)CN(c2ccc(Cl)cc2)C2=[N+]1CCCS2 (stereo not given) | -11%[15.4 µM] | . | -0.6 | 5% | 1 | 3% | 9
O=C(Cn1ccc(NC(=O)OCc2ccccc2)nc1=O)NCCN1CCOCC1 | . | -0.5% | . | 7% | -13 | . | -4
CCN1C(=O)NC2C1N(S(C)(=O)=O)CCN2S(C)(=O)=O (stereo not given) | -7% | 1.1% | -0.1 | 14% | -24 | 10% | -2
New compounds follow:
SMILES | gsp agonist | ClpP mod | Menin-MLL FL inh | gsp antagonist | D2 PAM | Sfp PPTase inh | TRPV1 potentiator
COc1cc2c(C(=O)NCc3ccc4c(c3)OCO4)cn(C)c(=O)c2cc1OC | 0% | -14% | 0.1 | 24% | 18 | 14% | -33
COc1ccc(/C=N/Nc2nncn2N)cc1Br | 7%[15.4 µM] | 16µM* | -4.6 | 0% | 21 | -16% | -2
CCOc1cc2[nH]c(=S)n(Cc3ccc(C(=O)NCCOC)cc3)c(=O)c2cc1OCC | 8% | 1.7% | 1.8 | 27% | -15 | -18% | 6
C/C(=N\NC(=O)Cc1c(C)[nH][nH]c1=O)c1cccc(Br)c1 | -4% | 0.8% | 9.9 | -9% | -22 | 10% | -19
Cc1ccc(Cl)cc1N1CCN(C(c2ccc(C#N)cc2)c2nnnn2C2CCCC2)CC1 (stereo not given) | -17% | -4.7% | 1.0 | 0% | -5 | 1% | 2
Cc1ccc(CNC(=O)C2CC=CCC2C(=O)O)cc1 (stereo not given) | 5% | 1.1% | 2.8 | 0% | -8 | 10% | ?
CN(C(=O)COC(=O)/C=C/c1ccc(S(=O)(=O)N2CCc3ccccc32)cc1)C1CCS(=O)(=O)C1 (stereo not given) | -3% | . | 0.6 | 1% | -1 | 19% | 8
CC(Sc1nnnn1C1CC1)C(=O)Nc1cccc(S(=O)(=O)N2CCOCC2)c1 (stereo not given) | ? | -1.2% | . | -1% | -1 | . | -10
Cc1ccc(S(=O)(=O)N2CCOCC2)cc1C(=O)NC1=NCCS1 | 18% | -1.7% | . | 2% | -12 | . | .
